GIV Gai3 FP: blocks GIV peptide binding to rat Galpha-i3; Galpha-i3/FITC-GIV peptide fluorescence polarization, 90 min; hits give low values; scaled: aluminum fluoride 0%, vehicle 100%; percent of control (FP), % (test concentration not listed); actives 0.42% (n = 210,000);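 active = replicate mean at 85% of control or lower, very high polarization wells dropped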;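 also: wells of about 15 µL received 100 nL stock; the first replicate is given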
Target sequence (P08753 whole entry, looked up): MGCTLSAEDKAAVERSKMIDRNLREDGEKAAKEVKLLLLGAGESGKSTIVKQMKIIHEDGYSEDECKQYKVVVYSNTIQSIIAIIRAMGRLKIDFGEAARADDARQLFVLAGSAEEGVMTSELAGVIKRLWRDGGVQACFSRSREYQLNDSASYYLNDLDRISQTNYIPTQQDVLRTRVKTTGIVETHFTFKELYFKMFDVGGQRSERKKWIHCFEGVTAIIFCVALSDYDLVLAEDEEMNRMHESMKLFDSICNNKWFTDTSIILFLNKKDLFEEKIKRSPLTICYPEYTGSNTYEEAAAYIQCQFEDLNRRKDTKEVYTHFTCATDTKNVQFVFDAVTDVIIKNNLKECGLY
HCMV UL50-53 inh: cytomegalovirus nuclear egress complex inhibition. HTRF UL50-UL53 interaction, normalized percent inhibition. inhibition, % (concentration not given with the values). actives 0.15% (n = 190,000). AID 1918969;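 active = both replicates at 50% or more, plus weaker picks with an unusually low signal ratio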;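 also: stock transfer was 100 nL into about 20 µL; 0% = negative control wells and 100% = wells with untagged competitor protein; inactives centre near -12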
Sa growth inh: inhibitors of Staphylococcus aureus growth at 42 °C | S. aureus RN4220 growth, OD600, 20 h; hits give low values | relative growth, % (no concentration beside the values) | actives 0.53% (n = 170,000);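 active = growth at 42 °C up to 50% and 20 or more points under that at 30 °C, or under 10% at both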;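 also: 300 nL library stock went into each well; scaled to the means of positive and negative controls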
Sa growth inh second temp: recorded beside Sa growth inh, whose call it bears; relative growth, %; measured here: growth at 30 °C;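 optical density after 20 h as mean of two plates; 100% = untreated growth and lower means inhibition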
An asterisk follows results filed as active; x = not tested or not shown; & = joins results of further samples. No enrichment for hits (roughly 0.83% active in at least one column).

nr	compound	GIV Gai3 FP	HCMV UL50-53 inh
1	O=C(CCc1nc2ncccc2c(=O)n1Cc1ccccc1Cl)N1CCN(c2ccccc2)CC1	112	x
2	Cc1ccccc1-n1c(/C=C/c2c(C)n(C)c3ccccc23)nc2ccccc2c1=O	104	-47
3	CCOC(=O)c1noc2nc(C)n(CC(=O)Nc3ccccc3F)c(=O)c12	101	x
4	COc1cccc(OC)c1C(=O)Nc1cccc(-c2cn3ccsc3n2)c1	103&102	x
5	COc1ccc(-n2cc(-c3ccccc3)c3c(NN4CCOCC4)ncnc32)cc1	100	-31
6	CC1(C)CC(n2[nH]c(=O)cc2N)CCO1 (stereo not given)	x	-3
7	Cc1cc2nnc(SCC(=O)Nc3cccc(C(F)(F)F)c3)n2c2ccccc12	102	-8
8	Cc1nc(CCNS(=O)(=O)c2cccs2)cs1	100	x
9	Cc1cnc2c(c1SCC(=O)NC1CCCC1)c(=O)n(C)c(=O)n2C	102	-25
10	CS(=O)(=O)c1ccc2nc(NC(=O)COc3ccccc3)sc2c1	x	-32

nr	Sa growth inh	Sa growth inh second temp
1	100	90
2	102	82
3	97	101
4	105	89
5	73	39
6	115	91
7	x	x
8	99	82
9	101	87
10	90	83

nr	compound	GIV Gai3 FP	HCMV UL50-53 inh
11	COc1ccc2c(C)cc(N3CCC(C(N)=O)CC3)nc2c1	x	-6
12	CCc1nc2ccc(Oc3ccc4nc(CC)[nH]c4c3)cc2[nH]1	102	-10
13	COc1ccc(NC(=O)CN2C(=O)CSc3ccc(S(=O)(=O)N(C)C)cc32)cc1Cl	101	x
14	COc1cccc(NC(=O)Cn2c(=O)n(Cc3ccco3)c(=O)c3cc(OC)c(OC)cc32)c1	107	-4
15	COc1cc(-c2nc(Nc3cccc([N+](=O)[O-])c3)c3ccccc3n2)cc(OC)c1OC	100	21
16	Cc1ccc(Cl)cc1N1CCN(C(=O)C2CCN(c3nnc(N4CCCC4=O)s3)CC2)CC1	98	-21
17	O=C1c2ccccc2NC(c2ccco2)N1O (stereo not given)	95	-27
18	COC(=O)c1sccc1NC(=O)c1cc2c(CO)cnc(C)c2oc1=O	95	-15
19	CCn1cc(S(=O)(=O)c2cccc(C)c2)c(=O)c2cc(F)c(N3CCN(c4ccccc4)CC3)cc21	108	x
20	Cc1nc2cc(N3CCN(C)CC3)c(NC(=O)C3CC3)cc2c(=O)n1Cc1ccccc1	101	-16

nr	Sa growth inh	Sa growth inh second temp
11	106	103
12	82	53
13	97	91
14	84	91
15	x	x
16	x	x
17	78	71
18	x	x
19	154	111
20	104	82

nr	compound	GIV Gai3 FP	HCMV UL50-53 inh
21	CCCN1Cc2cccc(C(=O)Nc3ccc(-c4nc5ccccc5[nH]4)cc3)c2C1=O	97	-9
22	O=S(=O)(Nc1nc(-c2ccc(F)c(F)c2)cs1)c1cccs1	109	8
23	CN1C(=O)c2ccccc2C(C(=O)NCCCN2CCCC2=O)C1c1cn(C)c2ccccc12 (stereo not given)	99	x
24	O=C(CSc1nc(=O)n(Cc2ccco2)c2c1CCC2)NCc1ccc(F)cc1	104	x
25	Cc1cc(S(=O)(=O)C(CNC(=O)COc2ccccc2)c2cccs2)ccc1F (stereo not given)	107	x
26	Cc1cccc(Nc2cc(C)nc3nc(Cc4ccc(Cl)cc4)nn23)c1	102	-33
27	COc1ccc(S(=O)(=O)N2C3CCC2CC(NC(=O)NC2CCCCC2)C3)cc1 (stereo not given)	102	5
28	O=C1COc2ccc(C(=O)Nc3ccc(F)cc3)cc2N1	100	-3
29	O=C(CSc1nc2cc(C(=O)NC3CCCC3)ccc2c(=O)n1CC1CCCO1)c1ccc2c(c1)OCO2 (stereo not given)	100	-10
30	CN1CCN(CCCNC(=O)C2C3C=CC4(CN(Cc5ccccc5Cl)C(=O)C24)O3)CC1 (stereo not given)	101	-1

nr	Sa growth inh	Sa growth inh second temp
21	x	x
22	149	93
23	79	89
24	142	87
25	125	105
26	59	55
27	100	74
28	x	x
29	x	x
30	98	93

nr	compound	GIV Gai3 FP	HCMV UL50-53 inh
31	C=C(C)Cn1c(=S)[nH]c2sc3c(c2c1=O)CC(C)(CC)OC3 (stereo not given)	101	-10
32	CCOC(=O)CSc1nc(NC)c2c3c(sc2n1)CCCC3	103	-70
33	O=C(O)CCC(=O)N1N=C(c2c(-c3ccccc3)c3cc(Cl)ccc3[nH]c2=O)CC1c1ccco1 (stereo not given)	99	-19
34	COc1cccc(-c2nc3nc(C)c(CCC(=O)NC4CCCCC4)c(C)n3n2)c1	99	-25
35	Cc1cc(=O)n2nc(C)sc2n1	103	-15
36	Cn1c(=O)n(-c2ccc(F)cc2)c2nc(-c3cccnc3)nc(C(N)=O)c21	110	-6
37	CCc1ccc(NC(=O)C2CCCN(S(=O)(=O)c3cc(-c4noc(C)n4)sc3C)C2)cc1 (stereo not given)	108	-8
38	COCCCn1c(=O)c(C#N)cc2c(=O)n3ccccc3nc21	93	-78
39	Nc1ccc(N=C2C(=O)Nc3ccccc32)cc1	97	-28
40	CCc1cc(C(Nc2nc(C)cc(C)n2)c2ccsc2)c(NC(=O)c2ccccc2)s1 (stereo not given)	106	-16

nr	Sa growth inh	Sa growth inh second temp
31	x	x
32	106	77
33	x	x
34	x	x
35	98	92
36	x	x
37	x	x
38	108	89
39	94	62
40	x	x

An excerpt from above in order of count of non-hydrogen atoms, lowest first:
nr	compound	GIV Gai3 FP	HCMV UL50-53 inh
35	Cc1cc(=O)n2nc(C)sc2n1	103	-15
39	Nc1ccc(N=C2C(=O)Nc3ccccc32)cc1	97	-28
38	COCCCn1c(=O)c(C#N)cc2c(=O)n3ccccc3nc21	93	-78
36	Cn1c(=O)n(-c2ccc(F)cc2)c2nc(-c3cccnc3)nc(C(N)=O)c21	110	-6
34	COc1cccc(-c2nc3nc(C)c(CCC(=O)NC4CCCCC4)c(C)n3n2)c1	99	-25
37	CCc1ccc(NC(=O)C2CCCN(S(=O)(=O)c3cc(-c4noc(C)n4)sc3C)C2)cc1 (stereo not given)	108	-8

nr	Sa growth inh	Sa growth inh second temp
35	98	92
39	94	62
38	108	89
36	x	x
34	x	x
37	x	x

Other compounds
nr	compound	GIV Gai3 FP	HCMV UL50-53 inh
41	CCOC(=O)C1=C(C)OC(N)=C(C#N)C1c1ccc(O)cc1 (stereo not given)	101	-47
42	CN(C)/C=N/S(=O)(=O)c1ccc(Cl)c(Cl)c1	108	26
43	c1cnc(N2CC[N+]3(CCCC3)CC2)nc1	99	x
44	COc1ccc(S(=O)(=O)N2CCN(C)CC2)cc1-c1noc(C)n1	112	-30
45	COc1cc(/C=C(\C#N)c2ccccc2)cc(OC)c1OC	103	-8
46	CCNC(=S)Nc1ccc(NC(=O)c2ccccc2O)cc1	110	9
47	O=C(NCCOc1ccccc1Cl)c1ncn[nH]1	104	-12
48	COc1ccc(N2CCN(C(=O)c3ccc(Nc4nc5ccccc5n5nnnc45)cc3)CC2)cc1	102	-5
49	CCOC(=O)c1ccc(Oc2nc(C)nc3c2oc2ccccc23)cc1	101	x
50	CCn1c(=O)c(-c2noc(C(=O)NC3CCCC3)n2)nn(-c2ccc(F)cc2)c1=O	101	-47

nr	Sa growth inh	Sa growth inh second temp
41	x	x
42	102	96
43	111	87
44	x	x
45	63	76
46	111	87
47	101	65
48	86	93
49	93	84
50	x	x

nr	compound	GIV Gai3 FP	HCMV UL50-53 inh
51	COc1ccccc1C1Nc2ccccc2-n2c(-c3ccccc3)c3c(=O)n(C)c(=O)n(C)c3c21 (stereo not given)	106	-2
52	O=C(NCc1cccc(F)c1)C1CC(O)CN1C(=O)Nc1ccccc1 (stereo not given)	101	-1
53	O=C(NCCc1nc2ccccc2n1Cc1ccccc1F)c1ccc(F)cc1	106	-23
54	CCOC(=O)Nc1ccc2c(CN3CCN(c4ccc(OC)cc4)CC3)cc(=O)oc2c1	x	-23
55	Cc1ccc(N2C(=O)/C(=C/N(C)C)c3ccccc3C2=O)cc1	x	-14
56	Cn1c(SCc2ccc(C(=O)NCCO)cc2)nc2sc3c(c2c1=O)CCC3	97	4
57	CC(C)(C)C(=O)Oc1ccc(-c2csnn2)cc1	94	-8
58	Cc1c(N=CC2CCCN3CCCCC23)c(=O)n(-c2ccccc2)n1C (stereo not given)	x	-17
59	Cc1sc2ncn(CC(=O)N(C)c3cccc(C(F)(F)F)c3)c(=O)c2c1S(=O)(=O)N1CCN(c2ncccn2)CC1	109	3
60	Oc1ccc(N2CCN(c3nc(-c4cccnc4)nc4ccccc34)CC2)cc1	x	3

nr	Sa growth inh	Sa growth inh second temp
51	114	89
52	112	88
53	103	93
54	88	92
55	101	94
56	x	x
57	98	84
58	74	57
59	85	91
60	98	92

nr	compound	GIV Gai3 FP	HCMV UL50-53 inh
61	Cc1cc(C)n(-c2nc(CC(=O)Nc3ccc(F)cc3)cs2)n1	98	-14
62	COC(=O)c1ccc(-n2c(C)cc(/C=N/N(C)C)c2C)cc1	x	1
63	CC(=O)N1CCC(N(CCN2CCOCC2)C(=S)Nc2cccc(C(F)(F)F)c2)CC1	108	-26
64	CC1(C)CN(c2ccc(OCc3ccccc3)cc2)C1=O	100	-15
65	COc1ccc(OC(=O)c2c(Cl)cccc2Cl)cc1	100	-9
66	Cn1c(=O)c2c(nc(SCC(=O)Nc3ccccc3)n2C)n(C)c1=O	103	3
67	COc1ccc(NC(=O)CN2C(=O)CCn3nc(-c4cccn4C)cc32)cc1OC	104	-6
68	CCOC(=O)c1cc(C(=O)Nc2ccccc2F)c(=O)[nH]c1C	98	-18
69	COc1cccc(CN2C(=O)C3(SCC(=O)N3c3ccc(F)cc3)c3ccccc32)c1 (stereo not given)	102	x
70	O=C(O)c1ccc(NC(=O)c2cc3c([nH]c2=O)CCCC3=O)cc1	105	-3

nr	Sa growth inh	Sa growth inh second temp
61	x	x
62	67	66
63	101	83
64	x	x
65	115	84
66	105	102
67	x	x
68	x	x
69	98	97
70	104	95

nr	compound	GIV Gai3 FP	HCMV UL50-53 inh
71	COc1ccc(Br)cc1C1Sc2ccccc2NC2=C1C(=O)c1ccccc12 (stereo not given)	108	-21
72	Cc1oc(C(C)(C)C)cc1C(=O)C(C#N)=C1SCCS1	105	-5
73	COc1cccc(CNC(=O)C(=O)NCC(c2ccco2)S(=O)(=O)c2ccccc2)c1 (stereo not given)	102	x
74	CC(C)CNC(=O)c1ccc2c(=O)n(-c3ccc(F)cc3)c(SCC(=O)c3c[nH]c4ccccc34)nc2c1	118	-11
75	NC(=O)c1oc2ccccc2c1NC(=O)C1COc2ccccc2O1 (stereo not given)	96	-24
76	N#CCC(=O)Nc1ccc(N2CCOCC2)cc1	x	2
77	CCN1C(=O)c2cc(C(=O)NC)nn2CC1(C)C(=O)NC1CCCC1 (stereo not given)	102	-3
78	O=C(CC(=O)C(F)(F)F)c1ccccc1	x	-10
79	COCc1nn2cc(-c3ccc(Br)cc3)nc2s1	101	-18
80	O=C(CN(c1ccccc1)S(=O)(=O)c1ccccc1)N1CCCC1	105	22

nr	Sa growth inh	Sa growth inh second temp
71	102	88
72	95	103
73	101	93
74	x	x
75	103	86
76	87	95
77	x	x
78	90	62
79	100	94
80	113	107

nr	compound	GIV Gai3 FP	HCMV UL50-53 inh
81	CCN(CC)C(=O)C1Sc2nnc(-c3ccccc3)n2NC1c1ccccc1 (stereo not given)	104	5
82	CCC(Oc1ccc(C(C)(C)CC)c(C)c1)C(=O)O (stereo not given)	100	-10
83	N#CC1=C(N)OC2=C(COc3ccc(F)cc32)C1c1ccc(Cl)cc1 (stereo not given)	107	-7
84	CCCNC(=O)C1CCCN1 (stereo not given)	x	10
85	CN(C)/C=N/c1sc2c(c1C#N)CCCC2	x	-46
86	COc1ccccc1N1CCN(S(=O)(=O)CCNC(=O)C(c2ccccc2)c2ccccc2)CC1	105	x
87	COc1ccc(NC(=O)CSC2=Nc3ccccc3C3=NC(CC(=O)NCc4ccccc4OC)C(=O)N23)cc1Cl (stereo not given)	101	-8
88	CC(C(=O)Nc1ccccc1)N(c1nccs1)S(=O)(=O)c1ccccc1 (stereo not given)	x	-18
89	CCOC(=O)N1CCc2c(sc(NCc3cccc(F)c3)c2C(=O)Nc2ccc(OC)cc2)C1	115	x
90	CCc1ccc(NC(=O)C(Cc2ccccc2)n2cccc2)cc1 (stereo not given)	109	x

nr	Sa growth inh	Sa growth inh second temp
81	88	93
82	55	48
83	88	63
84	106	105
85	106	90
86	98	87
87	111	84
88	112	93
89	90	88
90	96	83

nr	compound	GIV Gai3 FP	HCMV UL50-53 inh
91	COCCN1C(=O)c2ccccc2C(C(=O)Nc2ccc3c(c2)OCCO3)C1c1c[nH]c2ccccc12 (stereo not given)	103	-20
92	O=C(Cn1c(=O)oc2cc(S(=O)(=O)N3CCCC3)ccc21)Nc1cccnc1	100	x
93	CCc1cccc(C)c1NC(=O)CN1C(=O)c2ccccc2Sc2ncccc21	100	x
94	c1ccc(CNc2nnnn2-c2ccccc2)cc1	104	-24
95	O=C(CCc1ccccc1)NCCN1CCN(C(=O)CCc2ccccc2)CC1	x	-5
96	CCCCc1nn2c(=O)cc(COC(=O)c3cccc(Cl)c3)nc2s1	101	x

nr	Sa growth inh	Sa growth inh second temp
91	98	92
92	97	86
93	119	104
94	106	84
95	106	102
96	90	96

Source: PubChem BioAssay
